LASV entry inh = inhibitors of Lassa virus binding or entry into cells | Potency, µM (top dose mostly 49.2 µM), for inactives: top-dose activity change, negative = inhibition, usual class: inhibitors | AID 720533 | Lassa virus pseudotyped entry inhibition, cell-based qHTS; control for the full effect not named in the record; many of its hits are not listed in these tables | 18,000 compounds, 4.1% hits; active = well fitted inhibition curve with a large enough effect; inconclusive = small, poorly fitted or top-dose-only effect; inactive = no such curve, though single readings can be large or run the other way; tested in HEK293 cells; further: luciferase read-out
MARV entry inh = blocks Marburg virus binding or cell entry. Marburg virus pseudotype entry/binding inhibition, cell-based; control for the full effect not named in the record; many of its hits are not listed in these tables. Potency, µM (doses to about 49.2 µM), without a hit: at the highest dose activity change, negative = inhibition, actives largely listed as inhibitors. 18,000 compounds, 6.5% hits. AID 720532; active means well fitted inhibition curve with a large enough effect; inconclusive means small, poorly fitted or top-dose-only effect; inactive means no such curve, though single readings can be large or run the other way; tested in HEK293 cells; further: luciferase read-out
Numbers without * were called inactive; ? = inconclusive; · = not tested or not shown; & = joins results of further samples; ! = not active in a repeat; [ ] = another dose, or the depositor's remark. On the % scale 0 is the no-effect control and ±100 the full control effect; potency means the concentration at half of the fitted maximal effect. An excerpt; count on the stated rates, not on these rows.

| smiles | LASV entry inh | MARV entry inh |
| --- | --- | --- |
| Cc1cc(=O)c2c(O)c3c(O)cc(=O)c4c3c3c(cc(O)c1c23)C(C)(C)C=4O | 6.3µM* | 6.3µM* |
| CN1C(=O)C[C@@H](C(=O)N[C@@H](Cc2cnc[nH]2)C(=O)N2CCC[C@H]2C(N)=O)NC1=O | -19% | -9% |
| COc1cc2oc(-c3ccccc3)cc(=O)c2cc1OC | -16% | 33%[activator] |
| COc1cc(OC)c2ccc(=O)oc2c1C(CCN1CCOCC1)c1ccc(N(C)C)cc1 (stereo unspecified) | 6% | -11% |
| COC(=O)Nc1nc2ccc(C(=O)c3cccs3)cc2[nH]1 | ? | 1.1µM*! |
| CC(=O)NC(CC(=O)O)C(=O)NC(CCC(=O)O)C(=O)O (stereo unspecified) | -4% | 4% |
| CC(C)(O)[C@H]1O[C@@H]2CC[C@]3(C)[C@@]4(C)c5[nH]c6ccccc6c5C[C@@H]4CC[C@]3(O)C2=CC1=O | -29% | ? |
| COc1ccc(CN2CCOc3ccc(C(O)c4cccnc4)cc3C2)cc1O (stereo unspecified) | 20% | ? |
| O=C1OCCN1C(=O)[C@H]1[C@H](c2ccc(Cl)cc2)C(c2ccccc2)=NN1c1ccccc1 | -14% | -14% |
| O=C(c1ccco1)N1CCN(C2CN(Cc3ccccc3)S(=O)(=O)C2)CC1 (stereo unspecified) | -30% | 5% |
| Nc1ccc(S(=O)(=O)Nc2nccs2)cc1 | -3% | -11% |
| COc1ccc2c(c1)CC[C@@H]1[C@@H]2CC[C@]2(C)[C@@H](NCCCCCCN3C(=O)C=CC3=O)CC[C@@H]12 | 10% | -7% |
| O=c1c(O[C@@H]2O[C@H](CO)[C@@H](O)[C@H](O)[C@H]2O)c(-c2ccc(O)cc2)oc2cc(O)cc(O)c12 | -1% | 9% |
| CC1CCC2C(C)C(=O)OC3O[C@]4(C)CCC1[C@@]32OO4 (stereo partly specified) | -23% | -26% |
| COC1=C[C@@H](C)C2CC3OC(=O)C[C@H]4C(C)=C(OC)C(=O)C([C@@]2(C)C1=O)[C@@]34C (stereo partly specified) | 0% | 10% |
| COC(=O)c1c(OCc2ccccn2)cc(=O)n2c1CCN(C(=O)c1cc(C(C)C)nn1C)CC2 | -8% | -23% |
| CC(O)C(C)OC(=O)[C@@H]1C[C@@H]2c3cccc4c3c(cn4C(C)C)C[C@H]2N(C)C1 (stereo partly specified) | ? | 13% |
| CC1=CC[C@@H](COc2ccccc2)O[C@@]2(C1)C(=O)N(Cc1ccc(F)cc1)c1ccccc12 | -11%[8.59 µM] | -2%[8.59 µM] |
| Cn1nc(C(=O)NCCN2Cc3ccccc3OC(c3ccsc3)C2)c2ccccc2c1=O (stereo unspecified) | 4% | -30% |
| Oc1cc(O)c2c(c1)O[C@H](c1ccc(O)c(O)c1)[C@H](O)C2 | ? | ? |
| CC(C)Nc1oc(-c2ccccc2)nc1-c1cccc2ccccc12 | -11% | 2% |
| O=C1N[C@H](Cc2ccccc2)C(=O)N1Cc1cccc2ccccc12 | 0% | 0% |
| COC(=O)CC1[C@@]2(C)C[C@@]34OC5(C)OC6(CC[C@@]7(C)C(c8ccoc8)OC(=O)C(C(C)=O)C7[C@]6(O5)C(O)[C@@]3(O)C2O)[C@]14C (stereo partly specified) | 6% | -25% |
| COc1cc(-c2c(OC)cccc2OC)cc2c1OCCN(Cc1cn[nH]c1-c1ccc(Cl)cc1)C2 | -1% | 6% |
| COc1ccccc1C(=O)N1[C@@H](C(C)C)COc2cc(Br)ccc2S1(=O)=O | ? | ? |
| C[C@@]12C=Cc3occc3C1CC[C@@]13C[C@@H](CCC12)[C@@](O)(CO)C3 (stereo partly specified) | -1% | 6% |
| CN(CCc1ccc(Cl)c(Cl)c1)CC(O)COc1ccc(NS(C)(=O)=O)cc1 (stereo unspecified) | 3%&-16% | ? |
| CCN1CC2(OC(=O)c3ccccc3NC(C)=O)CCC(OC)[C@]34C1[C@H](CC23)[C@@]1(O)C[C@H](OC)[C@H]2CC4C1(O)[C@H]2OC (stereo partly specified) | -3% | -3% |
| Cc1cc2oc(=O)cc(-c3ccccc3)c2c(C)c1-c1ccc(O)cc1 | ? | 6% |
| C[C@@H]([C@H](O)c1ccccc1)N(C)C | 4% | 33%[activator] |
| Cc1ccccc1CN1CCSCCS1(=O)=O | -7% | ? |
| C=C(C)C(=O)/C=C/c1ccc(Br)cc1 | -10% | ? |
| O=C(O)c1ccc2nc(-c3ccccc3)c(-c3ccccc3)nc2c1 | 9% | 13% |
| COC(=O)[C@@]1(C=C2c3ccc(F)cc3[C@@H](OC)[C@@H]2C)[C@@H]2CC=C[C@@H]21 | 6%[8.59 µM] | 0%[8.59 µM] |
| Cc1ccc([C@H]2C[C@@H](n3cc(-c4ccc(F)cc4)nn3)[C@H](O)CN2CC2CCCCC2)cc1 | ? | ? |
| CCOC(=O)CCN1C(=O)[C@@H]2[C@H]3[C@H](O)[C@H](O)CC(=NNC(=O)OCc4ccc(OC)cc4)[C@@H]3CC[C@H]2C1=O | ? | 12%[8.59 µM] |
| O=C(NC1CC1)c1cccc(NC(=O)C2CCC2)c1 | 11% | 19% |
| NC(=O)c1ccccc1O | 3% | 16% |
| CCCCN1CC(N2CCN(C3CCN(C)CC3)CC2)CS1(=O)=O (stereo unspecified) | · | 19% |
| COc1cc2c(c(OC)c1OC)C(c1ccccc1C)CC(=O)O2 (stereo unspecified) | -10% | -9% |
| CC(C)(C)OC(=O)N1CCC(C(=O)Nc2cccc(C(=O)NCCCCc3ccccc3)c2)CC1 | 13% | 14% |
| CCCCCCN1C[C@@H](n2cc(COC(=O)c3ccccc3)nn2)[C@H](O)C[C@H]1c1ccc(Cl)cc1 | -20% | ? |
| CC(C)NC(=O)OC[C@@H]1CSCCS(=O)(=O)N1 | · | 19% |
| CCS(=O)(=O)CCn1c([N+](=O)[O-])cnc1C | 5%[17.8 µM] | -13%[17.8 µM] |
| CC(N)COC(=O)C(CCCCN)NC(=O)Cc1c(-c2ccc3ccccc3c2)[nH]c2c1ccc1ccccc12 (stereo unspecified) | -15% | -6% |
| Cc1nc(-c2ccc(-c3ccc(C(=O)N4CCc5cc6c(cc54)C4(CCN(C)CC4)CO6)cc3)c(C)c2)no1 | 28µM* | 10µM* |
| CC12C=C(/C=C/CCc3ccco3)C(C)(C1)[C@H](CCc1ccco1)CC2=O (stereo partly specified) | 0% | -1% |
| CCCCN1CC(COCc2ccccc2)Oc2cccc(Oc3ccc(F)cc3OC)c2S1(=O)=O (stereo unspecified) | · | ? |
| COc1ccc([C@]23Cc4cc(C#N)ccc4[C@H](O2)c2c(cc(C)n(Cc4ccccc4)c2=O)O3)cc1 | 3%[8.59 µM] | ? |
| COCCOCCO | 14%[107 µM] | 17%[107 µM] |
| CC(=O)OC[C@@]12C(=O)[C@@H](O)[C@@H](C)[C@]3(C[C@@H](c4ccoc4)O[C@@H]3OC(C)=O)[C@H]1CCC[C@]21CO1 | -3% | -11% |
| O=C1NC(=O)C(c2cccc(Cl)c2)=C1Nc1ccc(O)c(Cl)c1 | · | ? |
| CC1=C(C(=O)Nc2ccc3[nH]ncc3c2)C(c2ccc(F)cc2)NC(=O)N1 (stereo unspecified) | ? | 8% |
| COc1ccccc1C1CN(CCNC(=O)c2ccccc2Cl)Cc2ccccc2O1 (stereo unspecified) | -2% | 5% |
| C=C(C)CCN1C(=O)NC(c2cccc(C(F)(F)F)c2)C(C(=O)OC)=C1C (stereo unspecified) | -10%[8.59 µM] | -19%[8.59 µM] |
| COC(=O)[C@H](Cc1ccccc1)NC(=O)O[C@@H]1Cc2cc(OC)ccc2O[C@H]1c1cccc(OC)c1 | 4% | 8% |
| C=CCN1C[C@H](CO)Oc2cccc(F)c2S1(=O)=O | -4% | 16% |
| COc1cccc(-c2ccc(CN3C(C(C)C)C(=O)N(Cc4cn(CCC5OCCO5)nn4)CCS3(=O)=O)cc2)c1OC (stereo unspecified) | 11% | -23% |
| C[C@H]1C(O)[C@@]23CCC4C5(C=[N+](CCO)C[C@]4(C)CCC5)C2C[C@@H]1C3 (stereo partly specified) | -5% | -9% |
| CC(C)(C)OC(=O)NCCCCC1=CC2=CC(=O)C(C)(OC(=O)c3ccco3)C(=O)C2=CO1 (stereo unspecified) | 5% | -5% |

The results go on:
| smiles | LASV entry inh | MARV entry inh |
| --- | --- | --- |
| COc1ccc(-c2ccc(CN3C(C(C)C)C(=O)N(Cc4cn(CC5CCCCC5)nn4)CCS3(=O)=O)cc2)cc1 (stereo unspecified) | -27% | ? |
| CCCN(CCC)c1c([N+](=O)[O-])cc(S(N)(=O)=O)cc1[N+](=O)[O-] | ? | ? |
| CCN(CC)CCCN=C1NC(c2cccc(C(F)(F)F)c2)C(C(=O)OC)=C(C)N1CC (stereo unspecified) | -29%[8.59 µM] | -10%[8.59 µM] |
| C=CCN(CC=C)C[C@@H]1CSCCS(=O)(=O)N1 | -14% | 23% |
| CC[C@H](C)[C@@H](NC(=O)O[C@H]1C(=O)c2ccc(OC)cc2O[C@@H]1c1ccc2c(c1)OCO2)C(=O)OC | -12% | -1% |
| O=C1CCC(N2C(=O)c3ccccc3C2=O)C(=O)N1 (stereo unspecified) | -1%&0%&-4%&4% | 2%&-1%&-13%&-13% |
| COCc1cc2cc3c(cc2c2c(C(=O)OC)c(C(=O)OC)c(C(=O)OC(C)(C)C)n12)OCO3 | · | -27%[8.59 µM] |
| CN1CCN2c3ncccc3Cc3ccccc3C2C1 (stereo unspecified) | 1%&-6% | ? |
| CN(C)Cc1c[nH]c2ccccc12 | -2% | 6% |
| COC(=O)CCCC1=CC2=C(c3ccccc3)C(=O)C(C)(OC(=O)C3CCCC3)C(=O)C2=CN1c1ccc(OC)cc1 (stereo unspecified) | 4%[8.59 µM] | -5%[8.59 µM] |
| CCCCCCCCCCOCCC(=O)O | 6%&3% | 15%&10% |
| Oc1ccccc1-c1ccccc1 | -23% | 5% |
| COc1cc2c(cc1OC)[C@@H]1C(=O)c3ccc4c(c3O[C@@H]1CO2)C=CC(C)(C)O4 | ? | -33% |
| CCc1ncnc2cc(OC)c(OC)cc12 | 0% | 31%[activator] |
| O=C(c1ccc(N2CCC(NCCCn3ncc4ccccc43)CC2)cc1)N1CCc2ccccc2C1 | ? | 20µM* |

Look-ups from the entries so far.
Under LASV entry inh, O=C1CCC(N2C(=O)c3ccccc3C2=O)C(=O)N1 (stereo unspecified) is entered as -1%&0%&-4%&4%
Under MARV entry inh, O=C(c1ccc(N2CCC(NCCCn3ncc4ccccc43)CC2)cc1)N1CCc2ccccc2C1 is entered as 20µM*

Following part:
| smiles | LASV entry inh | MARV entry inh |
| --- | --- | --- |
| CN=C1N[C@H](c2ccccc2)N(c2ccccc2)S1 | ? | 27% |
| Cc1ccc(S(=O)(=O)NCl)cc1 | -10% | -13% |
| COc1cc2nc(CN(CCO)C3CS(=O)(=O)CC3O)nc(N3CCCCC3)c2cc1OC (stereo unspecified) | -3% | -25% |
| CCCCCCCCCCCCCCCC(N)=O | 4% | -2% |
| O=C1Nc2ccc(I)cc2/C1=C/c1cc(Br)c(O)c(Br)c1 | -23%&8%&-16% | -10%&17%&5% |
| O=C/C=C/c1ccc(O)cc1 | 1% | 10% |
| COc1cccc(C(=O)NCC2Cc3cccc(-c4cccnc4)c3O2)c1 (stereo unspecified) | 24% | -16% |
| COC(=O)[C@H]1O[C@@H](c2c(OC)c(OC)c(C)c(OC)c2OC)[C@H](C)[C@@H](O)[C@@H]1C | 2%[8.59 µM] | 6%[8.59 µM] |
| O=C1C(Cl)=CC(=Nc2ccc(O)cc2)C=C1Cl | -15% | -8% |
| CCCCC/C=C\C/C=C\C/C=C\C/C=C\CCCC(=O)N[C@H](C)CO | -18%&-26%&-5% | 0%&-26%&28% |
| COc1cc2oc(=O)cc(-c3ccc(-c4sccc4C=O)cc3)c2c(OC)c1OC | -5% | 8% |
| COc1ccc(NC(=O)N2CCc3nc(COc4ccccc4)c4c(c3C2)CO[C@@H](C)C4)cc1 | -2%[8.59 µM] | -19%[8.59 µM] |
| Cn1ccc2c(N3CCOCC3)cc3c(c21)C1CCC3O1 (stereo unspecified) | -29% | 21% |
| CCCn1c(=O)c2[nH]c(C3CCCC3)nc2n(CCC)c1=O | -2%&-4%&-5% | 6%&11%&11% |
| COCCNc1cc(-c2ccccc2C(F)(F)F)ncn1 | -10% | -4% |
| CC(CCN1CCCCc2nc(C)c(C)cc21)=NO[C@H](C)c1cn([C@@H]2COC[C@@H]2O)nn1 | 14%[8.59 µM] | 4%[8.59 µM] |
| O=C(Nc1cccc(C(=O)N2CCCC2)c1)c1ccccc1 | 13% | 18% |
| Cc1cc(O)cc2c1O[C@](C)(CCC[C@H](C)CCC[C@H](C)CCCC(C)C)CC2 | 0%&-21%&-19% | 13%&-9%&-4% |
| CCN1C(=NCCc2cccnc2)NC(c2ccccc2)C(C(=O)OC)=C1C (stereo unspecified) | -8%[8.59 µM] | ? |
| CS(=O)(=O)OCCCNCCCOS(C)(=O)=O | -2% | 33%[activator] |
| O=C(NCc1ccccc1)c1cccc(NC(=O)C2CCCCC2)c1 | · | 22% |
| O=C1OC(=O)C2C3CCC(O3)C12 (stereo unspecified) | ? | ? |
| O=c1cc(CO)occ1O | 2%&-6%&-13% | -1%&-12%&7% |
| CCN([C@H](CO)CC(C)C)S(=O)(=O)c1ccccc1 | 19% | 19% |
| COC(=O)C1CCN(Cc2ccc3c(c2)CN(C(=O)c2cc(C4CC4)on2)CCO3)CC1 | 3% | -32% |
| O=c1c(O)c(-c2ccc(O)c(O)c2)oc2ccccc12 | -24% | -12% |
| N[C@H](C(=O)O)c1ccc(O)c(C(=O)O)c1 | -3%&-14% | 11%&9% |
| CCC(=O)Nc1ccc(Cl)c(Cl)c1 | 0% | 1% |

Assay outcomes deposited in PubChem BioAssay by National Center for Advancing Translational Sciences (NCATS).
